# Screening results as filed in PubChem.
# Sa ugtP lethal – growth inhibition of ugtP-null S. aureus, primary screen, RN4220 ugtP deletion, OD600. 16 h; some inactives read as strong as hits. growth inhibition, % (concentration not given with the values). hit rate 0.54% among 330,000;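 active = z-score under -3 and OD600 up to 0.15 on both plates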;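 note: plate controls were untreated wells for no effect and antibiotic for full effect; wells of about 80 µL received 100 nL stock; the first replicate is given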
# RN4220 kill – growth inhibition of S. aureus RN4220, primary screen, OD600; 16 h; inhibition, % (test concentration not listed); hit rate 0.33% among 330,000; AID 1259311, 2017;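 active = z-score of -3 or lower and OD600 up to 0.18 on both plates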;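 note: plate controls were untreated cells for no effect and reference antibiotic for full effect; stock transfer was 100 nL into about 80 µL; one replicate is shown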
# Bead autofluor – compound fluorescence in toxin protease inhibitor counterscreen | fluorescence intensity (concentration not given with the values) | compound autofluorescence counterscreen, microsphere flow cytometry; stronger effect = higher value | hit rate 3.1% among 360,000 | AID 624483;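 active = at least 3 SD above the mean of all compounds, about 16000 in these data; inconclusive = too few beads counted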;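 note: 100 nL of 1 mM stock went into each well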
# BJeLR viability – MLPCN primary cell-based screen for lethality selective to Ras in HRASV12 cells; BJeLR (HRASV12) viability, CellTiter-Glo ATP luminescence, 48 h; reference of the scale not given here; inhibition, % (concentration not given with the values); hit rate 0.17% among 300,000;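 active = replicate mean above 50%; inconclusive = above 50% but judged a plate artefact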;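 note: 50 nL library stock added to about 25 µL; numbers are from one replicate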
# Mtb hypoxia inh – PubChem AID 1159583; M. tuberculosis hypoxia-regulated fluorescent reporter, fluorescence; fluorescence inhibition, % (concentration not given with the values); hit rate 0.1% among 300,000;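 active = 35 to 45% if threefold the growth effect, above 45% if 1.5-fold the growth effect; inactive = the rest, general growth blockers included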;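 note: wells of about 50 µL received 100 nL stock; 0% = vehicle wells and 100% = reference inhibitor wells; whole bacteria with a GFP reporter of the hypoxia response; strong numbers were not always called active; many hits fall short of the cut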
# PrP UTR inh – inhibition of PrP 5' UTR reporter expression | inhibition, % (test concentration not listed) | cell-based PrP 5' UTR mRNA reporter, plate reader | AID 488862, 2010 | hit rate 0.35% among 340,000;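 active = every replicate at 50% or more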;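 note: 0 = median of the neutral control wells; tested in H4 reporter cells; numbers are from one replicate; inactives centre near -14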
# Mtb hypoxia inh growth – further read-out of Mtb hypoxia inh, marked with its call; growth inhibition, %; measured here: M. tuberculosis growth (absorbance);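 0% = vehicle and 100% = reference antibiotic; read after six days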
# The depositor's hits bear a star; u = inconclusive; x = no result given.
SMILES,Sa ugtP lethal,RN4220 kill,Bead autofluor,BJeLR viability,Mtb hypoxia inh,Mtb hypoxia inh growth,PrP UTR inh
CCO[C@H]1OC(C(=O)NC2CC2)=C[C@@H](C2CCCCC2)[C@@H]1CCCO,x,x,3873,-5,x,x,-7
N#Cc1nc(-c2cccs2)oc1NCc1ccccc1,-2,2.6,2602,-9,x,x,-45
Cc1cccc(OCCNC(=S)NC(=O)c2cccnc2)c1,-1,2.7,2004,-8,4,3,-35
Cc1cccc2cc(CN(CC3CCCO3)C(=S)NCc3ccco3)c(=O)[nH]c12 (stereo unspecified),5,2.9,10999,1,8,3,-15
COC(=O)c1ccc(COc2cccnc2[N+](=O)[O-])cc1,x,x,7702,-6,x,x,-42
Cc1cc(OC(=O)c2ccccc2)n(CCC#N)n1,-8,1.7,3923,-4,x,x,-30
Cc1cccc(OCCNC(=O)CCc2ccccc2)c1,-6,-3.6,3454,-9,-8,11,x
Cc1ccc(NC(=O)NC2CCCCCCC2)cc1C,12,9.9,4484,x,x,x,-71
CS(=O)(=O)N1CCN(C2Cc3ccccc3C2)CC1,-1,-3.5,6436,-4,-4,0,-43
COc1ccc(CN(C)C(=O)CNC(=O)c2ccc(C)cc2)cc1,7,-0.5,4341,-6,2,5,-4
COCc1nc2ccccc2n1Cc1c(F)cccc1Cl,4,3.3,4340,-7,12,1,-24
CC(C)COC(=O)C(C#N)c1nc2ccccc2nc1N1CCN(Cc2ccc3c(c2)OCO3)CC1 (stereo unspecified),-14,-4.3,4467,-1,x,x,-11
COc1ccc(C(=O)NCC(=O)OCc2ccc(Br)cc2)cc1,16,-0.3,2008,7,5,3,-20
COc1ccc(S(=O)(=O)n2nc(OC(=O)c3ccccc3Br)cc2N)cc1,1,7.4,u,0,x,x,-12
CC(C)C1(C)N=C(c2ncccc2C(=O)O)NC1=O (stereo unspecified),3,3.4,11147,-15,-3,9,-11
CCOc1ccccc1C(=O)Nc1cc(=O)n(C)c(=O)n1C,4,2.0,6102,3,9,0,-14
COc1ccc(S(=O)(=O)NCCSC(C)(C)C)cc1Cl,-2,3.5,7845,13,3,0,7
O=C(NN=Cc1ccc2c(c1)OCO2)c1cccc(NC(=O)c2ccccc2Cl)c1,4,3.1,x,x,18,10,x
COc1cc(S(=O)(=O)N2CCN(Cc3ccccc3)CC2)ccc1Br,6,5.4,3796,2,x,x,3
Cc1cc(C)nc(NC(=O)CSc2nc3ccccc3o2)n1,1,1.3,10717,0,-8,3,-64
O=C1ON=C(c2ccccc2)/C1=C/c1ccc(OS(=O)(=O)c2ccccc2)cc1,7,4.1,1989,x,-6,1,-10
COc1ccc(CNS(=O)(=O)c2ccc(NC(=O)N3CCCCC3)cc2)cc1,3,-1.3,6565,11,1,0,-14
COC(=O)c1cccc(C(=O)N2CCCC(Nc3ccc4c(c3)OCCO4)C2)c1 (stereo unspecified),7,4.1,5631,-6,4,8,-17
O=C(CN(Cc1ccc(F)cc1)C(=O)CNS(=O)(=O)c1ccccc1)NCC1CCCO1 (stereo unspecified),1,3.9,5441,-8,4,6,-17
COc1ccccc1Nc1nnc(SCC(=O)c2cc(C)n(CC3CCCO3)c2C)s1 (stereo unspecified),-8,6.2,2407,-7,x,x,-16
CCOC(=O)c1c(C)[nH]c(C(=O)CN(C)CC(=O)Nc2ccccc2C(F)(F)F)c1C,-2,-0.2,3438,x,-1,3,-22
O=C(OCC(=O)N1CCCC1=O)C1COc2ccccc2O1 (stereo unspecified),10,2.2,5251,-2,10,3,-10
CC(=O)OC(C(=O)NC1CCCCC1)c1ccncc1 (stereo unspecified),5,1.6,9373,0,12,2,-17
O=C(c1ccc(Cl)cc1)c1ccc(OCC(=O)N2CCOCC2)cc1,-5,-1.7,3178,-10,-7,-7,-5
N#Cc1cn(-c2ccccc2)nc1-c1ccco1,8,7.2,10338,3,16,7,-37
CCCCNC(=O)OC1CC2CCN3C(=O)CCCC(C1Cc1ccccc1)C23 (stereo unspecified),0,2.6,x,x,18,16,x
O=C1CC(N2CCOCC2)C(=O)N1c1cc(Cl)cc(Cl)c1 (stereo unspecified),-2,5.5,10408,7,9,3,-15
CN(C(=O)c1ccncc1)c1nnc(-c2ccncc2)s1,3,1.6,4542,4,x,x,-11
COC(=O)CN1C(=O)Nc2ccc(Br)cc2C1c1ccccc1 (stereo unspecified),6,1.9,3547,2,x,x,2
CCOc1ccc(S(=O)(=O)N2CCC(C(=O)NCc3ccccn3)CC2)cc1Cl,13,4.7,5835,-11,3,-3,4
COc1cc(C=NNC(=O)c2ccncc2)ccc1OC(=O)c1ccccc1Cl,-3,5.2,x,x,17,10,x
COc1ccc(CNC(=O)c2cc(C3CC3)on2)cc1,0,-0.6,6010,-5,12,10,-18
Cc1ccc(NC(=O)C2CCCN(c3nccc(C)n3)C2)c(C)c1 (stereo unspecified),0,5.3,4828,-12,-1,0,-5
COc1ccc2c(c1)/C(=C/c1cnc[nH]1)C(=O)N2,x,x,6058,-2,x,x,-12
Cc1ccc(Nc2ccc(S(=O)(=O)N3CCOCC3)cc2[N+](=O)[O-])c(C)c1,-5,-1.7,2443,6,10,0,-9

# As a working copy, some entries already given:
SMILES,Sa ugtP lethal,RN4220 kill,Bead autofluor,BJeLR viability,Mtb hypoxia inh,Mtb hypoxia inh growth,PrP UTR inh
COc1cc(C=NNC(=O)c2ccncc2)ccc1OC(=O)c1ccccc1Cl,-3,5.2,x,x,17,10,x
COc1ccc(CNC(=O)c2cc(C3CC3)on2)cc1,0,-0.6,6010,-5,12,10,-18
Cc1ccc(NC(=O)C2CCCN(c3nccc(C)n3)C2)c(C)c1 (stereo unspecified),0,5.3,4828,-12,-1,0,-5
COc1ccc2c(c1)/C(=C/c1cnc[nH]1)C(=O)N2,x,x,6058,-2,x,x,-12
Cc1ccc(Nc2ccc(S(=O)(=O)N3CCOCC3)cc2[N+](=O)[O-])c(C)c1,-5,-1.7,2443,6,10,0,-9

# Next part.
SMILES,Sa ugtP lethal,RN4220 kill,Bead autofluor,BJeLR viability,Mtb hypoxia inh,Mtb hypoxia inh growth,PrP UTR inh
O=C(Nc1ccc(C(F)(F)F)cc1)C1CCCCN1S(=O)(=O)c1ccccc1 (stereo unspecified),3,3.4,4032,x,10,5,-30
COc1ccc(C(=O)Nc2cccc(C(=O)N3CCN(C)CC3)c2)cc1,3,-0.1,4716,-2,x,x,-21
O=C1Nc2ccccc2/C1=C/c1cnc[nH]1,4,7.6,19606*,-4,-2,-7,10
CCCCc1c(O)nc(SCC(=O)N2CCOCC2)[nH]c1=O,0,8.2,4255,-2,x,x,-20
CCOC(=O)C1CCN(C(=O)c2sc3nc(-c4ccc(F)cc4)cn3c2C)CC1,x,x,9215,-4,x,x,-22
O=C(CSc1nnc(Cc2cc(=O)[nH]c(=O)[nH]2)n1-c1ccc(Cl)cc1)N1CCc2ccccc21,3,0.1,x,9,5,13,x
Cc1ccccc1NC(=O)c1cn(-c2ccccc2)nc1-c1ccccc1,5,-2.6,2013,-1,1,-12,0
Cn1c(Cc2ccccc2)nnc1SCC(=O)c1ccc(Br)s1,-2,5.4,23767*,-24,10,0,8
COc1ccc(OC)c(NC(=O)Nc2ccccc2C)c1,-7,-12,2467,-6,16,8,0
COc1cccc(NC(=S)/C(=C(\[O-])c2cc(C)n(-c3ccccc3F)c2C)[n+]2ccc(N(C)C)cc2)c1,-6,7.9,2598,4,-2,9,11
O=C1NC(=O)C2(COC(c3ccncc3)OC2)S1 (stereo unspecified),2,2.2,2133,-1,5,-2,-17
COc1ccc(/C=C2/C(=N)N3N=C(CC(=O)N4CCCC4)SC3=NC2=O)cc1,-3,5.3,4304,8,8,-1,-3
Cc1[nH]c2ccccc2c1C(=O)CN1CCCCC1C (stereo unspecified),-7,-14,3915,-6,24,6,-15
COc1ccccc1CC(=O)OC(C)C(=O)Nc1ccc(S(=O)(=O)N2CCCCC2)cc1 (stereo unspecified),2,-4.3,4187,x,12,10,-15
Nc1c(Cl)cc(-c2csc(NC(CO)c3nc4ccccc4n3CCOCCO)n2)cc1Cl (stereo unspecified),-1,0.0,3754,-2,1,1,-3
Cc1ccc(S(=O)(=O)n2nc(OC(=O)c3cccc(F)c3)cc2N)cc1,10,0.7,6141,2,-1,4,-21
Cc1nc2ccc(NC(=O)CS(=O)(=O)c3ccc(F)cc3)cc2s1,-8,-1.5,u,-14,-4,2,-27
S=c1[nH]c(-c2ccc(Br)cc2)cn1CCc1ccccc1,0,0.1,4100,-6,13,8,-16
Cc1cc(C)n2nc(SCc3nnc(-c4cccs4)o3)nc2n1,-1,-2.6,4291,-5,-3,4,-5
COC(=O)CN(C)C(=O)c1ccc2nc(Cc3cccc(Cl)c3)oc2c1,13,3.3,4344,8,6,0,-59
O=C(Cc1ccccc1)NCCCc1ccccc1,1,0.0,2533,-4,x,x,-2
Cc1cc(Br)ccc1NC(=O)CN(C)C(=O)Cn1c(=O)cnc2ccccc21,2,0.5,5654,7,4,-4,-6
O=C(O)c1ccc(S(=O)(=O)c2ccccc2)cc1,-1,3.6,9742,-2,1,2,-20
CC(C)CC(=O)NC1(C(F)(F)F)C(=O)N(Cc2ccccc2)C2=C1C(=O)CC(C)(C)C2 (stereo unspecified),-1,2.6,21893*,-3,10,9,-14
O=C(O)c1ccc(N2Cc3ccccc3C2)cc1O,3,5.6,11362,-4,x,x,-28
O=c1[nH]nc(-c2ccc(F)cc2)cc1Cc1ccccn1,3,4.9,6088,-13,-3,-2,-10
COc1ccc(CCC(=O)N2CCN(C3CCCCC3)CC2)cc1,3,5.4,20796*,1,14,6,-21
CC(=O)c1ccc(C(=O)NC2CCCN(Cc3ccccc3F)C2)s1 (stereo unspecified),8,-0.5,5684,-4,9,15,-4
CCC(C)NCCOc1cccc(Br)c1 (stereo unspecified),-4,3.6,2549,6,9,8,-12
COc1ccc2cc(/C=C/C(=O)c3ccco3)c(Cl)nc2c1,-2,3.6,x,-9,1,5,x
Cc1cc(=O)[nH]c2ccc(S(=O)(=O)NCc3ccccc3)cc12,13,0.8,5724,6,2,4,-10
CCC(CC)C(=O)Nc1nnc(SCC(=O)NC2CCCCC2)s1,14,5.7,5721,-3,7,1,-18
CC(C)(C)c1ccc(C(=O)O[C@H]2[C@H](Cc3ccccc3)NS(=O)(=O)[C@H]3C[C@@H]4C=C[C@]23O4)cc1,-9,-3.6,3157,x,6,2,-18
Cc1cc(NC(=O)CSc2nncc(=O)n2N)no1,1,5.3,3759,9,3,9,-26
C/C(CC(=O)NC(C)C)=N\NC(=O)COc1cc(C)c(Br)cc1Br,x,x,2655,2,x,x,7
CN(c1ccccc1)S(=O)(=O)c1cccc(C(=O)NNC(=O)c2ccccc2)c1,2,1.7,4232,-1,10,-1,-1
Cc1ccc(C)c(C(=O)COC(=O)c2cccc(N3C(=O)c4c(C)nc5ccccc5c4C3=O)c2)c1,-4,8.5,1961,6,11,2,-2
CN(Cc1ccccc1)C(=O)c1nc2ccccn2c1CN1CCC(N2CCOCC2)CC1,-4,2.6,4624,10,-3,-1,-18
CC(=O)c1ccc(NC(=S)Nc2ccc3[nH]c(=O)[nH]c3c2)cc1,6,2.7,4746,3,11,7,-13
Cc1ccc(-c2nc(CS(=O)(=O)CC(=O)NCCN3CCCC3)c(C)o2)cc1,2,0.6,4732,10,-1,-7,-11
O=C(/C=C/c1ccc([N+](=O)[O-])cc1)c1cccs1,3,6.0,4442,-9,x,x,-9
O=C(Nc1ccccc1Cl)NC1(C(=O)NCCCN2CCOCC2)CCCCC1,5,3.1,4779,-1,x,x,-8
CCOC(=O)C1CCCN(C(=S)NC2CCCC2)C1 (stereo unspecified),-3,8.1,2448,10,18,5,-7
O=C(CSC1=NS(=O)(=O)c2cc(F)ccc2N1)Nc1ccccc1F,14,1.1,5741,-12,2,-4,0
Cc1ccc(SCC(=O)N2CCOCC2)cc1,1,-4.3,4787,3,x,x,-20
Nc1nc(N2CCCCC2)nc2ccccc12,-7,-16,2480,3,0,4,-22
CC(C)CN1CC(C)C(=O)N(c2ccccc2)C1=O (stereo unspecified),4,5.7,3455,x,7,13,-3
CSc1ccccc1OCc1cc(C(=O)N2CCC[C@H]2C(N)=O)no1,5,2.8,4834,14,7,5,-7
CCN(CC)c1ccc(/C=N/NC(=S)NCc2ccco2)cc1,x,x,2196,0,x,x,-31
